Rce1 inh: blocks yeast Ras-converting enzyme. Q03530. yeast membranes, quenched prenylated peptide cleavage fluorescence. calls only. 0.27% of 290,000 active;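 active = fall in fluorescence gain of 50% or more versus controls, with final raw signal at or below 3038400; inconclusive = same 50% fall but final raw signal above 3038400; inactive = fall in fluorescence gain under 50%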;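 also: plate controls were neutral control wells for no effect and wells lacking membranes for full effect; tested at 10 µM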
Target sequence (Q03530 whole entry, looked up): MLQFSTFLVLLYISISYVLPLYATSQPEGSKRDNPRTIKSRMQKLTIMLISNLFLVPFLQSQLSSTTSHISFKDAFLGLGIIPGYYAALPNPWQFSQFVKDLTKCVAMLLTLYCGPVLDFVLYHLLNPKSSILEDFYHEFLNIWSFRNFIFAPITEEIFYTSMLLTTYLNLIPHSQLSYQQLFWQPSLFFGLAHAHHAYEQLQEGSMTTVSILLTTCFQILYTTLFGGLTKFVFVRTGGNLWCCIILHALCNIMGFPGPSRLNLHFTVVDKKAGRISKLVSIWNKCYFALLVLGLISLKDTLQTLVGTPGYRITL
MT1-MMP act inh: inhibitors of human MT1-MMP activation | 0.061% of 360,000 active | P50281 | HT1080 RFP-PRO-GFP cells, GFP/RFP ratio fluorescence, overnight; percent of plate control window, DMSO zero | AID 651647 | GFP/RFP ratio change, % at 20 µM;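 active = GFP/RFP ratio change of at least 30% with cell ATP level not reduced by more than half and red fluorescence within 50% of control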; also: strong numbers were not always called active
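Material – HT1080 RFP-PRO-GFP cells · Control set – DMSO wells and RFP-L50D-GFP cells · Incubation – overnight cell settling, then overnight compound exposure, 37 °C, 5% CO2 · Compound dosing – single-point 20 µM compound, 1% DMSO · Read-out – GFP/RFP fluorescence ratio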
Env fusion inh: HIV envelope-mediated fusion inhibition. inhibition, % at 12.3 µM. HeLa-JRFL Env/CEM21 cell fusion, luciferase. 1.1% of 360,000 active. AID 651610;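 active = mean replicate inhibition score of at least 50 and every replicate individually at or above 50; inconclusive = only one of the two criteria met; inactive = mean below 50 and not all replicates reaching 50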;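 also: 0% = plate neutral controls and 100% = maraviroc near 300 nM; one replicate is shown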
UUG fidelity: alters start codon recognition fidelity in yeast | S. cerevisiae UUG-firefly luciferase reporter, luminescence/redox ratio | activity score, % at 18.7 µM | 0.13% of 350,000 active | AID 602363;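 active = replicate mean at a twofold rise or more, about +100% in these data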;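 also: firefly luciferase made from a UUG start codon reports start codon fidelity; reporter light over untreated wells divided by growth signal over untreated wells; some hits fall short of that in this replicate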
PABP polyA inh: blocks human PABP binding to poly(A) RNA; fluorescence polarization; inhibition, % at 35 µM; P11940; 1% of 290,000 active;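 active = 50% or more with normal probe brightness, or confirmed in later tests; inconclusive = above 50% with abnormal brightness, or retests that disagree; inactive = below 50% or failed in later tests; about a fifth of its hits are not listed in these tables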;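 also: calls also rest on retests at 20 µM and on dose response follow-up; controls were probe without protein and protein plus probe with vehicle; some compounds called inactive have numbers as strong as hits; many hits fall short of the cut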
Target sequence (P11940 whole entry, looked up): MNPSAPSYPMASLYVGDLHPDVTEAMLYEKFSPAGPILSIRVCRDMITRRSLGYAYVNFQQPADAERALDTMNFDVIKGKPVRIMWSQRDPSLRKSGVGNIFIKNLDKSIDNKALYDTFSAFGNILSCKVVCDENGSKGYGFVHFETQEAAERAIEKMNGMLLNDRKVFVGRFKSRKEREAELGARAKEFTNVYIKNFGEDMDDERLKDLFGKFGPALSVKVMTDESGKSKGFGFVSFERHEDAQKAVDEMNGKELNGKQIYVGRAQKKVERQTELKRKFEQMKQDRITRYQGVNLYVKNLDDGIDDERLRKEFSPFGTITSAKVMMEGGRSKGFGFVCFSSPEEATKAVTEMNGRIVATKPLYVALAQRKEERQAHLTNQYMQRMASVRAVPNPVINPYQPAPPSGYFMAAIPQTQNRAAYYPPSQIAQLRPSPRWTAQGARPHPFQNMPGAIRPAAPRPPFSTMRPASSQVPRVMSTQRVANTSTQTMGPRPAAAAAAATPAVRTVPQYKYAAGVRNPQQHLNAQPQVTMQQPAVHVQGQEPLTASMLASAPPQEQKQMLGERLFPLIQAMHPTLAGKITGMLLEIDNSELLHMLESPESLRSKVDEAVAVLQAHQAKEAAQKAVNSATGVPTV
eIF4H FP inh: inhibitors of RNA binding by human eIF4H; Q15056; eIF4H fluorescence polarization binding assay; inhibition, % at 35 µM; 0.94% of 290,000 active; AID 2012;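 active = 50% or more with normal probe brightness, or confirmed in later tests; inconclusive = above 50% with abnormal brightness, or retests that disagree; inactive = below 50% or failed in later tests; about a fifth of its hits are not listed in these tables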;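 also: calls also rest on retests at 20 µM and on dose response follow-up; 0% = protein and probe with vehicle and 100% = probe without protein; strong numbers were not always called active; many hits fall short of the cut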
CSC inhib: cancer stem cell inhibition; cancer stem cell-like cells viability, luminescence; inhibition, % at 7.5 µM; 1.1% of 300,000 active; AID 2717;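 active = mean at 75% or more and at least half the replicates too; inconclusive = mean and replicates disagree; tested in HMLE shEcad cells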;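 also: 0% = median of negative and 100% = median of positive control wells; the first replicate is given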
eIF4H FP inh retest: also measured in eIF4H FP inh; calls as there; inhibition, %; compound at 20 µM; confirmation average;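 mean of two retest wells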
PABP polyA inh retest: also measured in PABP polyA inh; calls as there; inhibition, %; compound at 20 µM; confirmation repeats;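 mean of two retest wells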
MT1-MMP act inh RFP: recorded beside MT1-MMP act inh, whose call it bears; RFP signal change, %; measured here: RFP expression control read;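 0 = vehicle wells; hits needed this value within 50% of zero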
* marks the source's active call; other numbers are inactive results; i = inactive; ? = inconclusive; . = not tested or not shown; + = active, no number; & = joins results of further samples; [ ] = another dose, or the depositor's remark. An excerpt, so the mix of outcomes need not match the whole.

SMILES | Rce1 inh | MT1-MMP act inh | MT1-MMP act inh RFP | Env fusion inh | UUG fidelity | PABP polyA inh | eIF4H FP inh | CSC inhib | others
Nc1nonc1-n1nnc(C(=O)N/N=C/c2cccc(Cl)c2)c1CN1CCCC1 | i | -3 | 4 | 2 | -7 | . | . | -7
COc1ccc(C2SCC(=O)N2c2c(C)n(C)n(-c3ccccc3)c2=O)c(OC)c1 (configuration not stated) | i | 1 | 3 | -8 | -5 | -4 | 0 | -4
CC(C)CNC(=O)c1cccc(C(=O)NCC(C)C)c1 | i | -1 | 4 | -74 | 6 | 2 | 1 | 6
CC(NC(=O)CNC(=O)c1ccccc1F)c1ccc(-n2ccnc2)cc1 (configuration not stated) | . | -4 | -2 | -5 | -28 | . | . | 14
COc1ccc(-n2c(=O)[nH]c3cc(C(=O)NCCc4ccccc4)ccc3c2=O)cc1OC | i | -3 | -10 | -3 | -6 | 6 | -11 | 6
CC(C)NC(=O)c1ccccc1-c1ccccc1 | i | -1 | 4 | -56 | -11 | 16 | 83 | -9 | eIF4H FP inh retest=5;PABP polyA inh retest=14
Cc1n[nH]c(C)c1CCC(=O)N/N=C/C=C/c1ccccc1 | i | 1 | 4 | 17 | -20 | ? | 4 | -3
Cc1ccc([N+](=O)[O-])cc1NC(=O)C(C)NS(=O)(=O)c1ccc(F)cc1 (configuration not stated) | i | -1 | 2 | 4 | . | 3 | 5 | -7
CCC(C)NC(=O)COC(=O)c1cc([N+](=O)[O-])ccc1Sc1nc(C)cs1 (configuration not stated) | i | 2 | -4 | . | -8 | -4 | 9 | 3
C[C@@H]1CN([C@@H](C)CO)C(=O)c2cc(NS(=O)(=O)c3cccs3)ccc2O[C@H]1CN(C)Cc1ccc(C(F)(F)F)cc1 | . | -4 | -1 | -2[16.7 µM] | 13&26 | . | . | 9
Nc1c(C(=O)N2CCOCC2)sc2nc3c(cc12)CCC3 | i | 0 | 2 | -32 | . | -2 | -9 | 2
Cc1noc(C)c1S(=O)(=O)N1CCC(C(=O)NCCCN2CC(C)CC(C)C2)CC1 (configuration not stated) | i | -5 | 2 | -4 | . | 3 | -7 | -5

Sorted by molecular weight (falling): 6 of the compounds above
SMILES | Rce1 inh | MT1-MMP act inh | MT1-MMP act inh RFP | Env fusion inh | UUG fidelity | PABP polyA inh | eIF4H FP inh | CSC inhib | others
C[C@@H]1CN([C@@H](C)CO)C(=O)c2cc(NS(=O)(=O)c3cccs3)ccc2O[C@H]1CN(C)Cc1ccc(C(F)(F)F)cc1 | . | -4 | -1 | -2[16.7 µM] | 13&26 | . | . | 9
Cc1noc(C)c1S(=O)(=O)N1CCC(C(=O)NCCCN2CC(C)CC(C)C2)CC1 (configuration not stated) | i | -5 | 2 | -4 | . | 3 | -7 | -5
Nc1nonc1-n1nnc(C(=O)N/N=C/c2cccc(Cl)c2)c1CN1CCCC1 | i | -3 | 4 | 2 | -7 | . | . | -7
CCC(C)NC(=O)COC(=O)c1cc([N+](=O)[O-])ccc1Sc1nc(C)cs1 (configuration not stated) | i | 2 | -4 | . | -8 | -4 | 9 | 3
CC(C)CNC(=O)c1cccc(C(=O)NCC(C)C)c1 | i | -1 | 4 | -74 | 6 | 2 | 1 | 6
CC(C)NC(=O)c1ccccc1-c1ccccc1 | i | -1 | 4 | -56 | -11 | 16 | 83 | -9 | eIF4H FP inh retest=5;PABP polyA inh retest=14

Further structures follow.
SMILES | Rce1 inh | MT1-MMP act inh | MT1-MMP act inh RFP | Env fusion inh | UUG fidelity | PABP polyA inh | eIF4H FP inh | CSC inhib | others
O=C(N/N=C/c1cc([N+](=O)[O-])cc([N+](=O)[O-])c1O)C(O)(c1ccccc1)c1ccccc1 | . | 9 | 1 | 0 | 0 | . | . | .
Cc1cccc(/C(N)=N/OC(=O)c2ccco2)c1 | i | 5 | -4 | . | -3 | 0 | 0 | -7
Cc1cccc(C(=O)N2CCCC(Nc3ccc(C(C)C)cc3)C2)n1 (configuration not stated) | i | -2 | 0 | -3 | -43 | 6 | 4 | .
CN1CCN(C(=O)c2cc(COc3c(F)cccc3F)on2)CC1c1ccccc1 (configuration not stated) | i | 4 | -5 | 15 | -32 | 7 | 3 | -6
S=C(NCc1ccccn1)Nc1ccc(Cl)cc1 | i | 6 | 11 | . | -27 | 1 | -11 | -1
Cc1nn(-c2ccccc2)c(C)c1NC(=O)COC(=O)CCc1ccccc1 | i | 0 | 4 | 12 | 2 | 2 | 5 | 1
O=S1(=O)CCOC[C@H](c2ccccc2)N1Cc1ccccc1F | i | 3 | -3 | 7 | -6 | -14 | -14 | -10
CCc1ccccc1NC(=O)C1(S(=O)(=O)c2ccc(C)cc2)CC1 | i | 1 | -1 | 16 | 2 | -3 | 0 | .
Cc1ccc(NC(=O)c2ccc(Cl)c(N3C(=O)CCC3=O)c2)cc1 | i | 3 | -3 | 5 | 7 | -5 | -12 | -8
COc1ccccc1Oc1c(C)oc2c(CN3CCN(CCO)CC3)c(O)ccc2c1=O | + | . | . | . | 1 | -1 | 3 | .
O=S(=O)(NC1CCCCC1N1CCOCC1)c1ccc(Cl)cc1 (configuration not stated) | . | 6 | 0 | 18 | 0 | -14 | -4 | 6
COc1ccc(COC(=O)C2=C(C)NC(=O)NC2c2ccc(O)cc2)cc1 (configuration not stated) | i | 3 | -6 | -6 | 3 | 3 | -8 | -8
CC(=O)c1cc(-c2ccccc2)n(CCC(=O)NC2CCCCCC2)c1C | i | 0 | -2 | 8 | . | -6 | -14 | -6
Clc1ccc(Nc2ccc(Cl)nn2)cc1 | i | -1 | 2 | 0 | -16 | -6 | 2 | -11
COc1cc(O)c2c(=O)c(-c3ccc(O[C@@H]4O[C@H](CO)[C@@H](O)[C@H](O)[C@H]4O)cc3)coc2c1 | i | -3 | -2 | -115 | 2 | 5 | 10 | 7
Cc1nc([N+](=O)[O-])nn1C12CC3CC(CC(Cl)(C3)C1)C2 | i | 4 | 2 | . | . | 4 | -5 | 24
O=C(c1ccc2ccccc2c1)N1CCc2ccccc21 | . | 2 | 1 | -36 | -21 | 3 | -4 | 9
O=C(Nn1cnnc1)c1ccncc1 | i | 2 | -1 | -31 | -22 | -8 | 4 | 6
CCc1ccc(OCC(=O)Nc2ccncc2)c(Br)c1 | i | -1 | -18 | -159 | -10 | 5 | -3 | 49
Cc1ccc(C)c(N2CCN(C(=O)CCNS(=O)(=O)c3ccc4c(c3)oc(=O)n4C)CC2)c1 | i | -1 | -14 | 7 | -11 | -3 | 4 | -4
O=C(Nc1ccc2c(c1)CCC2)c1cnccn1 | i | 6 | 1 | -71 | -17 | 11 | -4 | -7
O=C1C=CN2CCCC2CC1 (configuration not stated) | . | -3 | 1 | -14 | 0 | . | . | .
CC(C)c1ccc(NC(=O)COC(=O)C2CC3C=CC2C3)cc1 (configuration not stated) | . | 2 | 4 | . | 3 | . | . | -18
O=C(NNc1cc(Cl)cc(Cl)c1)c1cccs1 | i | 5 | 5 | 3 | -16 | 1 | 3 | 28

The closing 2 records of the section before are carried over, then new ones follow.
SMILES | Rce1 inh | MT1-MMP act inh | MT1-MMP act inh RFP | Env fusion inh | UUG fidelity | PABP polyA inh | eIF4H FP inh | CSC inhib | others
CC(C)c1ccc(NC(=O)COC(=O)C2CC3C=CC2C3)cc1 (configuration not stated) | . | 2 | 4 | . | 3 | . | . | -18
O=C(NNc1cc(Cl)cc(Cl)c1)c1cccs1 | i | 5 | 5 | 3 | -16 | 1 | 3 | 28
O=C(N1CCOCC1)N1CCC(NC(=O)C23CC4CC(CC(C4)C2)C3)CC1 | i | 1 | 0 | -9 | -22 | 4 | -12 | .
COc1ccc(C2/C=C\CN(CC(C)(C)C)CC(=O)N2Cc2ccc(F)cc2)cc1 (configuration not stated) | i | 1 | -3 | -4 | -16 | 1 | -4 | -16
CCC(NC(=O)OCc1ccccc1)C(=O)Oc1ccc2ccc(=O)oc2c1 (configuration not stated) | ? | 1 | 2 | 3 | -7 | -7 | -6 | -9
C[C@H](CO)N1C[C@H](C)[C@@H](CN(C)S(=O)(=O)c2ccc(F)cc2)Oc2ccc(NC(=O)c3ccncc3)cc2C1=O | . | -3 | 1 | -6[16.7 µM] | 1&-37 | . | . | .
COC(=O)Nc1ccc(OC)c(OC)c1 | i | 1 | 5 | . | -21 | 4 | -9 | -13
CCC(C)(C)n1nnnc1C(c1ccccc1F)N1CCC(C(N)=O)CC1 (configuration not stated) | i | 2 | 8 | . | . | 0 | -4 | .
Cc1nc([N+](=O)[O-])c(C(=O)OCc2ccccc2F)n1C | i | 4 | 5 | -13 | . | -5 | 10 | -7
CCOC(=O)C1CCN(Cc2cc(C(C)(C)C)c(O)c(C(C)(C)C)c2)CC1 | i | -5 | -2 | 13 | 7 | -2 | 9 | 22
Fc1ccc(Nc2nc(NCc3ccco3)c3ccccc3n2)cc1 | i | -11 | -30 | 14 | -18 | -18 | -14 | 86*
CC1CCN(C(=O)C2CCN(S(=O)(=O)N3CCC4(CC3)OCCO4)CC2)CC1 | i | 2 | 1 | -1 | -3 | 4 | -6 | 3
Cc1ccccc1-n1c(-c2ccncc2)n[nH]c1=S | i | -3 | 0 | -28 | -12 | 6 | 0 | -11
COC(=O)c1cc(=O)n(Cc2ccco2)c(=Nc2ccc(F)c(Cl)c2)s1 | i | -8 | -24 | -74 | -21 | -3 | -8 | 94*
Cc1cc(NC2CCCCC2)nc2ccccc12 | i | 2 | 1 | 38 | . | -4 | -8 | 11
COc1ccc(-c2cnc3c(-c4ccc(F)cc4)cnn3c2N)cc1 | i | 4 | 3 | -84 | -12 | -5 | 8 | -2
O=C(COc1ccc(-c2nnco2)cc1)Nc1c(Cl)cccc1C(F)(F)F | i | -2 | -1 | . | -14 | . | . | -5
Cc1cc(C)n(C/C=C/Cn2nc(C)cc2C)n1 | i | -2 | -2 | . | -27 | 3 | -11 | 5
O=C(NCCCc1ccccc1)c1ccc(Br)o1 | i | -4 | -5 | -118 | 14 | -2 | 1 | -11
COCCN(C(=O)CCC(=O)Nc1nccs1)C(C(=O)NCCC(C)C)c1ccc(OC)cc1 (configuration not stated) | i | -2 | 0 | 0 | -10 | 0 | 0 | 2
O=S1(=O)N=C2CCCCCN2C(c2ccc(Br)cc2)N1 (configuration not stated) | i | 1 | 4 | -20 | . | -8 | 5 | 16
CCCCCC(=O)Nc1ccc(C(=O)N/N=C/c2ccc([N+](=O)[O-])cc2)cc1 | i | 1 | -2 | . | -6 | 3 | 0 | -12
Cc1ccc(/C=N/NC(=O)c2nn(C)cc2Cl)cc1 | i | 6 | 5 | -2 | . | -6 | 0 | -13
O=C(CSc1nnc(-c2ccco2)n1-c1ccccc1)N1CCOCC1 | i | 1 | 3 | -17 | -12 | 0 | 0 | 2
CCNC(=S)N=Nc1c(O)[nH]c2ccc([N+](=O)[O-])cc12 | i | 2 | -1 | 0 | . | -6 | 15 | 11
O=C(O)Cn1nc(-c2ccccc2)c2ccccc2c1=O | i | 3 | 3 | -2 | -5 | 4 | -16 | -1
